# PrP 5UTR inh: inhibition of PrP 5' UTR reporter expression; AID 488862, 2010; inhibition, % (test concentration not listed); cell-based PrP 5' UTR mRNA reporter, plate reader; hit rate 0.35% among 340,000;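 active = every replicate at 50% or more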;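 also: 0 = median of the neutral control wells; tested in H4 reporter cells; numbers are from one replicate; inactives centre near -14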
# BJeLR viability: MLPCN primary cell-based screen for lethality selective to Ras in HRASV12 cells; hit rate 0.17% among 300,000; BJeLR (HRASV12) viability, CellTiter-Glo ATP luminescence, 48 h; reference of the scale not given here; inhibition, % (concentration not given with the values); AID 1554, 2009;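 active = replicate mean above 50%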;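 also: 50 nL library stock added to about 25 µL; numbers are from one replicate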
# Sa RN4220 lethal: growth inhibition of S. aureus RN4220, primary screen, OD600; 16 h; hit rate 0.33% among 330,000; inhibition, % (no concentration beside the values);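 active = z-score of -3 or lower and OD600 up to 0.18 on both plates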;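 also: plate controls were untreated cells for no effect and reference antibiotic for full effect; stock transfer was 100 nL into about 80 µL; one replicate is shown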
# Sa ugtP lethal: growth inhibition of ugtP-null S. aureus, primary screen, RN4220 ugtP deletion, OD600; 16 h; some inactives read as strong as hits; growth inhibition, % (no concentration beside the values); hit rate 0.54% among 330,000; AID 1259309, 2017;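 active = z-score under -3 and OD600 up to 0.15 on both plates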;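 also: plate controls were untreated wells for no effect and antibiotic for full effect; wells of about 80 µL received 100 nL stock; the first replicate is given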
# Mtb hypoxia rep: PubChem AID 1159583 | M. tuberculosis hypoxia-regulated fluorescent reporter, fluorescence | fluorescence inhibition, % (test concentration not listed) | hit rate 0.1% among 300,000;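 active = 35 to 45% if threefold the growth effect, above 45% if 1.5-fold the growth effect; inactive = the rest, general growth blockers included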;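 also: wells of about 50 µL received 100 nL stock; 0% = vehicle wells and 100% = reference inhibitor wells; whole bacteria with a GFP reporter of the hypoxia response; strong numbers were not always called active; many hits fall short of the cut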
# Autofluor counter: counter-screen for toxin protease inhibitors: compound fluorescence; compound autofluorescence counterscreen, microsphere flow cytometry; stronger effect = higher value; fluorescence intensity (concentration not given with the values); hit rate 3.1% among 360,000; AID 624483;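 active = at least 3 SD above the mean of all compounds, about 16000 in these data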;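 also: 100 nL of 1 mM stock went into each well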
# Mtb hypoxia rep growth: also measured in Mtb hypoxia rep; calls as there; growth inhibition, %; measured here: M. tuberculosis growth (absorbance);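 0% = vehicle and 100% = reference antibiotic; read after six days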
# Numbers without * were called inactive; x = no result given; & = joins results of further samples. The order is random; 4.1% or so of the library scored in one or more.
SMILES,PrP 5UTR inh,BJeLR viability,Sa RN4220 lethal,Sa ugtP lethal,Mtb hypoxia rep,Mtb hypoxia rep growth,Autofluor counter
CSc1nc(C)cc(SCC(=O)NN=Cc2ccccc2)n1,x,x,2.3,4,5,12,x
COc1ccc(C=NNc2nc(-c3ccc(Cl)cc3)cc(C(F)(F)F)n2)c(OC)c1,x,x,2.2,0,6,4,x
Cc1cccc(C(=O)Nc2oc(-c3ccccc3)cc2C#N)c1,2,0,-2.5,-7,x,x,5765
C#CCOCCOCCOCCNc1nc(N2CCN(C(=O)[C@H](Cc3ccc(O)cc3)n3cc(C(N)CC(C)C)nn3)CC2)nc(N2CCN(C(=O)[C@H](CCC(=O)O)n3cc(C(N)[C@H](C)CC)nn3)CC2)n1 (some centres not stated),-24,7,x,x,x,x,2891
S=c1[nH]nc(CNc2ccc(Cl)cc2)n1Cc1ccccc1,-5,7,3.3,-11,-4,4,4413
O=C(Cc1ccc(-n2cccc2)cc1)NCc1ccccc1Cl,0,2,-6.9,5,0,2,2726
Cn1c(=O)n(C)c2cc(NS(=O)(=O)c3ccc4c(c3)CCCC4)ccc21,-8,0,5.1,9,-3,-2,8258
CCOC(=O)c1c(NC(=O)CSc2nnc(Cc3ccccc3)o2)sc(C)c1C,-11,-1,19,98*,15,10,2929
CCc1noc(C)c1C(=O)N(CC)CC(=O)Nc1cc(Cl)ccc1C,-5,x,1.7,-1,7,7,3666
CC(C)(C)Nc1nc(OCC(F)(F)F)nc(OCC(F)(F)F)n1,-3,0,-1.1,-5,6,10,4659
Cc1nc(SCC2(C)CC2(Cl)Cl)n[nH]1 (configuration not stated),-22,-5,1.6,2,9,-6,2157
COC(=O)C(C)Sc1nnc(-c2ccncc2)o1 (configuration not stated),3,6,-1.8,-4,-12,8,21757*
COc1cc(CCCN2CCNC[C@H]2Cc2ccc(O)cc2)cc(OC)c1OC,-22,-8,x,x,x,x,3983
Cc1cccc(C(=O)NNC(=O)c2ccccc2O)c1,-46,-4,1.8,3,2,-10,4245
C/C(C=NNC(=O)Cn1cncn1)=C/c1ccc(C(C)C)cc1,x,x,4.1,6,16,5,x
Cc1nn(CC(=O)NCCCc2ccccc2)c(=O)c2cccn12,-11,2,2.6,1,2,0,5406
CCn1c(=O)c([N+](=O)[O-])c(NCC2CCCO2)c2ccccc21 (configuration not stated),-31,-7,2.7,4,7,10,3204
Cc1ccc(-n2c(SCC(=O)NCc3ccc4c(c3)OCO4)nnc2-c2cccnc2)c(C)c1,0,3,1.4,7,0,8,2864
Cc1cccc(Cn2nc(C(C)(C)C)cc2C(=O)Nc2ccc(F)cc2)c1,-11,15,x,x,x,x,3793
O=C1NC(=Nc2ccccc2)SC1Cc1ccccc1 (configuration not stated),1,2,2.5,-2,6,10,4641
CN(CC(=O)Nc1ccccc1C(F)(F)F)C(=O)c1ccccc1Sc1ccccc1C#N,-25,x,12,-1,1,-3,3149
O=C(NCC1CCCO1)c1cc2nc(-c3ccco3)cc(C(F)(F)Cl)n2n1 (configuration not stated),1,0,x,x,x,x,4509
Cc1cc(C)nc(SCc2cn3c(C)cccc3n2)n1,x,-7,1.9,5,-7,-2,4512
CSCCC(NC(=O)c1ccco1)C(=O)Nc1ccc(C)cn1 (configuration not stated),-27,5,1.5,4,5,0,5301
CCOc1cc(S(=O)(=O)n2ccc(C)n2)ccc1Br,-15,-2,9.1,-8,4,3,2804
# The list goes on.
SMILES,PrP 5UTR inh,BJeLR viability,Sa RN4220 lethal,Sa ugtP lethal,Mtb hypoxia rep,Mtb hypoxia rep growth,Autofluor counter
C=CCNC(=S)/C(=C(/[O-])c1ccccc1Br)[n+]1ccccc1,54,11,-2.2,-8,-12,4,3637
O=S(=O)(c1ccc(S(=O)(=O)N2CCN3CCCC3C2)cc1)N1CCCC1 (configuration not stated),-14,20,0.6,0,4,-2,5314
COc1ccc(N(CC(=O)NN=C(C)CCc2ccccc2)S(=O)(=O)c2ccc(C)cc2)cc1,x,x,2.7,6,-5,1,x
COc1ccc(-n2c(CN3CCOCC3)nc3ccc([N+](=O)[O-])cc3c2=O)c(OC)c1,-7,0,0.5,11,1,8,3683
Cc1ccc(-c2nnc(CSc3nc4cc5c(cc4cc3C)OCO5)o2)cc1,1,3,16,-16,1,5,9192
CCCCN(C)CCC(=O)Nc1ccc(F)c(F)c1,-16,4,4.9,-1,10,11,2625
Oc1ccc(Cn2ccnc2)c2cccnc12,-6,0,-0.1,-7,6,4,3460
CC(=O)OCC12COC3c4ccccc4OC(C)(CC1C)C3C2C (configuration not stated),-40,-7,1.4,7,12,-3,4460
O=C(CSC1=NS(=O)(=O)c2cc(Cl)ccc2N1)Nc1ccccc1F,-21,-1,2.1,10,-2,-1,15015
COC(=O)c1ccc(NC(=S)NC(=O)c2c(-c3ccccc3)noc2C)cc1,-27,6,5.5,35,13,-1,5009
COc1ccc(-c2nnnn2C)cc1S(=O)(=O)Nc1ccc(C)cc1C,-4,4,x,x,x,x,5543
O=C(CS(=O)(=O)c1ccccc1)N1CCN(c2ccccc2)CC1,-23,0,4.8,6,10,5,4907
Cc1cc(C)c(NC(=O)Cn2c([N+](=O)[O-])cnc2C)c(C)c1,-20,1,1.6,3,5,4,x
CC1CC(OCC(O)C[N+]2(C)CCOCC2)CC(C)(C)C1 (configuration not stated),-22,-9,1.6,13,14,5,2189
COc1ccc(N/C(=N/c2nc(C)cc(C)n2)NC(=O)Nc2ccc(Cl)c(Cl)c2)c(OC)c1,-46,2,-8.6,-18,-2,-3,10971
O=C(COc1ccc2c3c(c(=O)oc2c1)CCCC3)NCCCn1ccnc1,-56,-2,2.3,2,2,-7,2505
COc1ccc(C(=O)OCC(=O)Nc2ccc(OC)c(S(=O)(=O)N3CCCCC3)c2)cc1[N+](=O)[O-],-7,x,4.3,11,8,-2,4395
Cc1ccc2nc(Cl)c(C#N)cc2c1,-44,4,2.4,5,1,2,3747
CNC(=O)COc1coc(CN2CCN(c3ccccc3OC)CC2)cc1=O,-9,8,2.4,2,1,3,6777
O=C(/C=C/c1c(Cl)nc2ccccn12)N1CCCCC1,-22,-4,1.9,-10,4,4,2181
Cc1ccc(OCC(=O)NNC(=O)c2ccc3c(=O)n4c(nc3c2)CCC4)cc1,-10,1,0.4,-3,1,3,5806
O=S(=O)(c1ccc2ccccc2c1)N1CCN(C2CCN(Cc3ccccc3)CC2)CC1,-46,-9,2.1,-3,3,-4,23769*
CC(C)CNC(=O)c1cc(-c2ccc3c(c2)OCO3)on1,-15,-1,-0.4,3,2,-7,3640
O=S(=O)(Nc1ccc2c(c1)OCCO2)c1cnc[nH]1,-11,3,2.0,5,x,x,4510
COc1cc2c(cc1OC)C(c1cc(OC)c(OC)cc1[N+](=O)[O-])N(C(C)=O)CC2 (configuration not stated),-29,-12,3.5,-1,10,2,3815
# Next section
SMILES,PrP 5UTR inh,BJeLR viability,Sa RN4220 lethal,Sa ugtP lethal,Mtb hypoxia rep,Mtb hypoxia rep growth,Autofluor counter
CCOc1cc(/C=C/c2ccc3cccc([N+](=O)[O-])c3n2)cc(Cl)c1O,-20,-7,-7.6,4,6,0,1950
Cc1c(C)[n+](=O)c(-c2cccs2)c(C)n1[O-],-9,-4,3.1,-1,x,x,3342
Cc1ccc(NCC(=O)NN=Cc2ccc(C(=O)O)cc2)cc1,x,x,-0.1,-2,9,2,x
COc1cc2c(C#Cc3cccnc3)c(-c3ccsc3)oc(=O)c2cc1OC,3,x,-9.3,-3,3,-4,3864
COC(=O)C1(C(F)(F)F)N=C(C(F)(F)F)Nc2ccc(Cl)cc21 (configuration not stated),-11,4,4.1,-3,1,-2,2026
COc1ccc(C(CC(=O)NC(C)c2ccc(-c3ccccc3)cc2)NC(C)=O)cc1 (configuration not stated),-8,4,2.6,1,-13,-5,3620
COc1ccc(C(=O)Nc2ccc(CN3CCS(=O)(=O)CC3)cc2)cc1,-14,4,4.5,13,8,10,3023
NC(=S)N=Nc1c(O)[nH]c2cc(F)c(F)cc12,-39,3,8.3,-4,-1,0,2463
COc1ccc(S(=O)(=O)n2nc(OC(=O)c3cccs3)cc2N)cc1,-12,6,1.8,3,x,x,3645
O=C(NCc1cccnc1)c1ccc(Cl)c(S(=O)(=O)N2CCCCCC2)c1,-8,2,2.7,1,-1,3,2572
CCOCc1cnc(C)nc1NCC(=O)c1c(C)[nH]c2ccccc12,-21,-3,1.4,9,x,x,4301
CCCOc1ccc(C(=O)Nc2ccc3c(c2)OCO3)cc1,-75,3,3.7,6,11,-3,6088
Cc1cccc2c1NC(=O)C21OCC(CO)([N+](=O)[O-])CO1 (configuration not stated),-7,14,3.7,-2,2,0,3134
O=C(NCc1nnc(SCc2ccccc2)n1-c1ccccc1)C12CC3CC(CC(C3)C1)C2,-6,5,x,x,x,x,2309
Cc1ccc(CNC(=O)C2CNc3cc(C)ccc3O2)cc1 (configuration not stated),-8,1,-4.1,-1,12,3,16103
Cc1ccccc1C(=O)N1CCN(c2ccc(NC(=O)c3ccc([N+](=O)[O-])o3)cc2)CC1,-14,-1,12,47,20,27,4408
O=C(c1cc2c(cc1Br)OCCCO2)N1CCCCC1,-1,7,4.1,0,6,13,2090
N#C/C(=C\c1ccc(F)c(Cl)c1)S(=O)(=O)c1ccccn1,-14,-1,-2.6,-3,-6,4,3789
NS(=O)(=O)c1ccc(NC(=O)CSc2nnc(Cc3cccs3)n2-c2ccccc2)cc1,-16,4,-21,-4,4,8,3047
CN1CCN(CCCNC(=O)c2cn(C3CCCCC3)c(=O)c3c2c2ccccc2n3C)CC1,-30,-3,-1.0,2,x,x,4579
CN(C)C(=O)COC(=O)c1ccccc1NC(=O)c1ccco1,-6,-12,x,x,x,x,4260
CS(=O)(=O)N1CC(C(=O)O)Oc2ccc(CC(=O)O)cc21 (configuration not stated),-12,4,4.7,3,7,2,3510
Cc1ccccc1CC(=O)N1CCN(C(=O)C2CCCO2)CC1 (configuration not stated),-2,6,5.9,10,4,0,5383
COc1ccccc1NC(=O)CCC(=O)OCc1ccc([N+](=O)[O-])cc1,-1,-11,1.9,3,12,9,2579
COc1ccccc1-c1nc2c3ccccc3nc(=S)n2[nH]1,5,-1,53,16,7,4,3646
# The results go on.
SMILES,PrP 5UTR inh,BJeLR viability,Sa RN4220 lethal,Sa ugtP lethal,Mtb hypoxia rep,Mtb hypoxia rep growth,Autofluor counter
CN(C(=O)COC(=O)c1ccccc1Nc1ccccc1)C1CCS(=O)(=O)C1 (configuration not stated),-2,1,7.4,3,9,3,2506
CC(C)c1ccccc1OCC(=O)Nc1cc(S(=O)(=O)N2CCOCC2)ccc1N1CCCC1,-9,2,1.3,-3,2,4,6545
CCOC(=O)CCN(Cc1sccc1C)S(=O)(=O)c1ccc(F)cc1,-21,-3,8.7,4,11,7,11431
CC(C)OC(=O)c1cc2ccccc2oc1=O,-17,-4,7.5,0,13,13,7907
Cc1nn(C)c(NC(=O)c2ccccc2Cl)c1Br,-22,7,12,3,0,2,3674
Cc1ccc2nc(C)cc(N/N=C/c3ccccc3O)c2c1,-3,1,x,x,x,x,3695
CC(=O)Nc1c(O)[nH]c2ccccc12,-10,-3,0.1,4,12,1,10638
Cn1nc(-c2ccccc2)cc1NS(=O)(=O)c1ccccc1,-22,-4,3.6,7,3,8,5344
O=C(N/N=C/c1coc2ccccc2c1=O)c1cn(-c2ccccc2)nc1-c1ccccc1,-8,-4,x,x,x,x,2510
Cc1[nH][nH]c(=O)c1/C=N/N1CCOCC1,-10,0,x,x,x,x,2001
CC(=O)Nc1ccc(/C=N/NC(=O)c2cc3ccccc3nc2C)cc1,-11,-3,x,x,x,x,2055
CCCCCC(O)c1cccc(OCc2ccc3ccccc3n2)c1 (configuration not stated),-25&-33,-4,-0.4,9,5,14,6210
OCCN(Cc1ccccc1)CC1CC=CCC1 (configuration not stated),-24,4,5.1,1,2,-4,9896

# Screens from PubChem BioAssay.
